RGS16-Gao HTS: regulators of human RGS16-Galphao interaction; AID 1441; 0.38% of 220,000 active; bead-based flow cytometry RGS16-Galphao binding, fluorescence; actives lie on both sides; O15492+P09471; binding response (% of control), % at 10 µM;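 active = below 25% or above 175%, edge rows of some plates excepted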;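 note: Galphao activated by GDP with aluminum fluoride before binding; 100% = wells without compound and 0% = beads without RGS; some results beyond the cut were filed as inactive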
Target sequence (O15492 whole entry, looked up): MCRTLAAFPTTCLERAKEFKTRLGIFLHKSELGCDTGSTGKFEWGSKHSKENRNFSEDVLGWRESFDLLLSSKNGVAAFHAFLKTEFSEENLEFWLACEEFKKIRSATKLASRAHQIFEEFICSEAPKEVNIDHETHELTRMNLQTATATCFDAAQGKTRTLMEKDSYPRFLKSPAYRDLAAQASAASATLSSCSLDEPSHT
Target sequence (P09471 whole entry, looked up): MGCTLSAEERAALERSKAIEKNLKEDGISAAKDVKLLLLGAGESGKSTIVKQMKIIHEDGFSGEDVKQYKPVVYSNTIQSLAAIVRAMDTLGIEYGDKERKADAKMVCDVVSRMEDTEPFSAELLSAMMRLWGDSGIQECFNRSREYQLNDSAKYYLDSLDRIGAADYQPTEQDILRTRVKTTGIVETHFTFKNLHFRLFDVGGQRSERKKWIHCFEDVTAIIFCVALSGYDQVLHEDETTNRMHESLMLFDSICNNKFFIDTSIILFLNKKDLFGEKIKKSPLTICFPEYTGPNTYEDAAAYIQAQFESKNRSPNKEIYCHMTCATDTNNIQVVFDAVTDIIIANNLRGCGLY
PKD1 inh: PKD1 (human) kinase inhibition; PKD1 kinase fluorescence polarization assay; Q15139; inhibition, %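 (about 10 µM by stock and volumes)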; 0.056% of 200,000 active;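 active = inhibition of 50% or more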;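 note: controls were vehicle for no effect and a reference inhibitor for full effect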
GALR2 agonist: GALR2 (human) receptor agonism. O43603. GALR2-expressing cells, agonist activation read-out. activation, %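 (tested at 5 µM)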. 0.48% of 140,000 active;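 active = above mean plus 3 SD of all compounds, about 5% in these data, not always enough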;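 note: 0% = vehicle buffer wells and 100% = reference agonist at full effect; tested in CHO reporter cells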
Target sequence (O43603 whole entry, looked up): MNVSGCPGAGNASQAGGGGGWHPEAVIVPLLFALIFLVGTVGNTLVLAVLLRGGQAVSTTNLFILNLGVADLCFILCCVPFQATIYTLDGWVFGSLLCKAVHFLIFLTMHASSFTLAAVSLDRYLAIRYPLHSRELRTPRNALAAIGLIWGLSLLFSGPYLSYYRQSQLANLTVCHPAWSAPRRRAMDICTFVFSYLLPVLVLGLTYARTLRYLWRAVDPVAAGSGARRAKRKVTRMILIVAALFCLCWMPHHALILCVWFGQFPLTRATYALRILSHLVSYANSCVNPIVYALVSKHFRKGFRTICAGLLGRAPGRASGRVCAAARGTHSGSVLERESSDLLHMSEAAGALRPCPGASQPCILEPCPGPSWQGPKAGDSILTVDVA
HSV augment: HSV replication enhancement | 0.005% of 220,000 active | maximum fold increase | HSV replication augmentation in cells, fold increase;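 active = peak rise of 1.5-fold or more in the series; inconclusive = self-fluorescent or not available for retest; tested in PC3 cells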;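 note: first round at 10 µM; read as green reporter fluorescence; hits show the peak of a series up to 25 µM; 1 = signal of infected wells without compound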
INS promoter inh: TRM-6 insulin promoter activity inhibition; inhibition, % at 2 µM; TRM-6 cells (human fetal islet line), insulin promoter-eGFP reporter, imaging; reporter expression induced with tamoxifen; 0.9% of 130,000 active; AID 1273;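 active = inhibition above the mean plus 3 SD, with well images judged a real hit on visual review, cut at about 60% in these data, passing the limit was not always enough; inconclusive = inhibition over the cutoff but images rejected on review; inactive = inhibition not above the cutoff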
INS promoter inh cell count: second read-out of INS promoter inh, no call of its own (marks repeat the call); normalized cell count, %; measured here: cell count, toxicity; reference of the scale not given here;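 cells exposed to compound for 48 h; stained nuclei by imaging scaled within each plate; lower means fewer cells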
HSV augment primary fold: recorded beside HSV augment, whose call it bears; fold increase; compound at 10 µM; measured here: primary screen fold increase 10 uM; tested in PC3 cells;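 GFP signal in the first replicate; 1 = infected wells without compound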
Active calls of the source: *; i = inactive; ? = inconclusive; / = not tested or not shown.

SMILES,INS promoter inh,RGS16-Gao HTS,HSV augment,PKD1 inh,HSV augment primary fold,GALR2 agonist,INS promoter inh cell count
O=C(Nc1ccc2c(c1)OCCO2)Nc1ccc2c(c1)OCO2,0,93,i,0,0.92,/,102
COc1ccccc1/C=C/C1=NC(=C\C=C/c2ccccc2)/C(=O)O1,35,29,i,-4,0.93,-2.9,48
CCn1c(C(=O)NC(C)c2ccc3c(c2)OCCO3)cc2sccc21 (stereo unspecified),/,100,i,3,0.84,-5.6,/
CC1CCCN(c2ccc(N)cc2C(N)=O)C1 (stereo unspecified),/,112,i,1,0.85,/,/
NC(=O)[C@@H]1CCCN1Cc1nc(-c2ccccc2)no1,/,103,i,-8,0.98,/,/
Cc1noc(C)c1CSc1ccc2ccccc2n1,-105,101,i,-3,0.92,-0.3,91
COc1cccc(-c2cc3nc4c(c(NCC(C)(C)CN(C)C)n3n2)CCCC4)c1,0,99,i,1,0.63,/,85
CCOc1ccccc1NC(=O)c1cc(C(=O)c2cc(OC)ccc2O)coc1=N,-52,105,?,-8,/,0.2,117
COc1ccc(-n2cnnc2SCC(=O)N2CCN(c3ccccc3)CC2)cc1,7,98,i,7,0.95,-0.1,87
Cc1ccc(C(=O)NN2C(=O)C3C4C=CC(C5CC45)C3C2=O)cc1 (stereo unspecified),-111,111,i,2,0.86,/,179
CCCOC(=O)NC1C(NC(=O)OCCC)N(C)C(=O)N1C (stereo unspecified),/,103,i,-2,1,-0.3,/
Cc1cc(C(=O)NP(=O)(N2CC(C)OC(C)C2)N2CC(C)OC(C)C2)c(C)n1C1CC1 (stereo unspecified),-11,110,i,-3,0.99,/,116
COc1ccc2c(c1)c(C(=O)CNc1nc(C)cs1)c(C)n2C,/,103,i,14,1.1,-1.3,/
CC(C)c1ccc(CN(C(=O)c2cc3ccccc3oc2=O)C2CCS(=O)(=O)C2)cc1 (stereo unspecified),14,87,i,-11,0.84,-1.1,84
CC1CN(Cc2nc3ccccc3c(=O)[nH]2)CC(C)O1 (stereo unspecified),33,102,i,-5,1.2,/,140
CCC(C(=O)N1CCN(S(C)(=O)=O)CC1)c1ccccc1 (stereo unspecified),-305,102,i,-9,0.99,-0.5,84
CC(C)Nc1nnc(SCc2cc(=O)n3ccsc3n2)s1,33,100,i,2,1.1,/,52
Cc1cc2oc(=O)cc(COC(=O)c3n[nH]c4ccccc34)c2cc1C,32,104,/,-4,/,-1.5,87
COc1cc(/C=C/C(=O)Nc2cc(C(F)(F)F)ccc2Cl)cc(OC)c1OC,-3,69,i,11,0.79,-0.9,74
CCOC(=O)CC(NCc1ccc(OC)c(OCC)c1)c1ccc(C)cc1 (stereo unspecified),/,97,i,-5,0.81,/,/

Reprinted from the listing for reference:
SMILES,INS promoter inh,RGS16-Gao HTS,HSV augment,PKD1 inh,HSV augment primary fold,GALR2 agonist,INS promoter inh cell count
Cc1cc(C(=O)NP(=O)(N2CC(C)OC(C)C2)N2CC(C)OC(C)C2)c(C)n1C1CC1 (stereo unspecified),-11,110,i,-3,0.99,/,116
COc1ccc2c(c1)c(C(=O)CNc1nc(C)cs1)c(C)n2C,/,103,i,14,1.1,-1.3,/
CC(C)c1ccc(CN(C(=O)c2cc3ccccc3oc2=O)C2CCS(=O)(=O)C2)cc1 (stereo unspecified),14,87,i,-11,0.84,-1.1,84
CC1CN(Cc2nc3ccccc3c(=O)[nH]2)CC(C)O1 (stereo unspecified),33,102,i,-5,1.2,/,140

More entries
SMILES,INS promoter inh,RGS16-Gao HTS,HSV augment,PKD1 inh,HSV augment primary fold,GALR2 agonist,INS promoter inh cell count
CN(C)c1cc[n+](CC(=O)Nc2cc(C(F)(F)F)ccc2Cl)cc1,-33,103,i,6,0.85,0.0,111
O=C(Nc1ccccc1)N1CCCC(CNS(=O)(=O)Cc2ccccc2)C1 (stereo unspecified),/,104,i,-6,0.96,/,/
CC(C)CN(C(=O)c1cc2ccccc2o1)c1c(N)n(CC(C)C)c(=O)[nH]c1=O,/,95,i,0,1.1,-0.5,/
CCc1nnc(NC(=O)CCC(=O)NC2CCCCC2)s1,/,100,i,-5,0.93,-0.5,/
CCN(CC)C(=O)CC(c1ccc2c(c1)OCO2)c1c(OC)cc(OC)c2ccc(=O)oc12 (stereo unspecified),/,96,i,/,0.72,/,/
CCCCCC(=O)Nc1ccc(N2CCN(S(C)(=O)=O)CC2)cc1,10,101,i,-4,0.94,-2.9,78
CCOc1ccc(N2C(=O)C3CC(C)=C(C)CC3C2=O)c([N+](=O)[O-])c1 (stereo unspecified),-91,101,i,-3,0.91,-2.4,112
CCOc1ccc(CC2NCCc3cc(OCC)c(OCC)cc32)cc1OCC (stereo unspecified),/,98,i,-6,1.1,/,/
COc1cc(/C=C/C(=O)c2ccc(C)c([N+](=O)[O-])c2)cc(OC)c1O,/,100,i,4,0.83,0.1,/
COc1ccc(N(C(C)C(=O)N/N=C/c2cccnc2)S(C)(=O)=O)cc1 (stereo unspecified),/,98,i,-1,1.1,/,/
Cc1cc(C)c(Nc2ncccc2C(=O)O)c(C)c1,27,107,i,-6,1,/,139
Cn1c(=O)[nH]c(=O)c2c1nc1n2CCS1,/,105,i,-5,0.94,/,/
CC(C)CC(=O)NCC(C)NC(=O)CC(C)C (stereo unspecified),-26,95,i,-12,0.93,0.0,38
COc1ccccc1NC(=S)Nc1ccccc1F,-7,97,i,6,1,-0.7,86
COCCNC(=O)COc1cccc2c1OC(C)(C)C2,-14,98,/,-7,/,/,114
CCOC(=O)NC(=O)c1cn(C(CC)CO)c(=O)[nH]c1=O (stereo unspecified),50,103,i,2,0.99,-2.1,127
Cc1cc(C)c2c(n1)nn1c(N3CCOCC3)cc(C)nc21,74*,/,/,-4,/,-2.4,61*
Cc1ccc(C(=O)O/N=C2\CCSc3ccc(C)cc32)cc1,5,99,i,6,0.95,0.7,75
O=C(N=c1ccn(-c2nc3ccccc3nc2NS(=O)(=O)c2ccccc2)cc1)c1cccs1,-4,100,i,-3,1,-0.6,124
O=C1CN(C(=O)c2ccco2)c2ccccc2N1,-4,87,i,-7,1,-0.1,54
CNc1nc2ccccc2n1/N=C/c1cccc(OC)c1OC,-3,102,i,-15,0.96,0.2,50
Cc1ccc(CNS(=O)(=O)c2ccc3oc(C(=O)O)c(C)c3c2)cc1,69,106,i,-8,1,-1.9,118
COc1ccccc1N1CCN(C(=S)Nc2ccc(S(=O)(=O)N3CCOCC3)cc2)CC1,/,103,i,-8,1.1,/,/
Cc1ccccc1OCc1nnc2c3cnn(C)c3ncn12,/,99,/,4,/,-0.9,/
CCOC(=O)C1(C(F)(F)F)N=C(c2cccnc2)OC(N2CCCCC2)=N1 (stereo unspecified),36,101,i,0,1,-0.6,132
COc1cccc(CNc2ccc([N+](=O)[O-])cc2C)c1,/,95,i,-5,1.1,/,/
O=C(c1ccc(Nc2cccc(C(F)(F)F)c2)nc1)N1CCCC1,/,104,i,3,0.88,-1.2,/
CN(C)c1nc(N)c2ncc(=S)[nH]c2n1,/,99,i,0,0.97,/,/
COCCN(Cc1cc2cc3c(cc2nc1Cl)OCO3)C(=O)c1ccc(C)cc1,-12,107,i,7,0.97,/,162
COC(=O)c1cc(-n2cccc2)ccc1N1CCOCC1,/,101,i,/,1,/,/
COC(CNC(=O)Cc1c(C)nc2c(-c3ccccc3)c(C)nn2c1C)OC,/,105,i,-8,1.1,/,/
CC(NC(=O)C(Cc1ccccc1)n1cccc1)c1ccccc1 (stereo unspecified),/,99,i,/,1.1,/,/
CC(=O)c1c(C)[nH]c(C)c1C(C)=O,-145,104,i,-11,0.85,-0.3,36
C=CCSc1nnc(NC(=O)c2cccc(S(=O)(=O)N3CCOCC3)c2)s1,67,98,i,2,0.83,-2.9,159
CN1CCC(=O)N([C@H](CSc2ccc(Br)cc2)Cc2ccccc2)CC1,/,101,i,/,0.76,/,/
COc1cccc(-n2cc3c(c2-c2ccccc2)c(=O)n(C)c(=O)n3C)c1,/,89,i,2,0.72,2.6,/
COc1ccc(N=C2SC(C(N)=O)CC(=O)N2Cc2ccc3c(c2)OCO3)cc1 (stereo unspecified),/,104,i,/,1,/,/
C=CCNCCCOc1ccc(Cl)cc1Br,-33,101,i,4,1,-0.5,99
N#C/C(=C/c1ccc(O)c([N+](=O)[O-])c1)C(=O)Nc1ccccc1,-6,99,i,3,0.81,/,81
O=C(c1ccco1)N1CCN(CC(=O)N2c3ccccc3CCc3ccccc32)CC1,29,112,i,12,0.93,-0.4,96
O=C(O)Cn1c(SCc2cccc3ccccc23)nc2ccccc21,11,103,i,-1,0.89,-1.4,97
O=C(CSc1nc(-c2ccccc2)nn1C(=O)c1ccccc1)Nc1cccc([N+](=O)[O-])c1,17,103,i,-2,1.1,-0.9,136
O=C(NCc1nc2ccccc2[nH]1)C1=C[C@H](c2coc3ccccc3c2=O)C[C@H](OCc2ccc(CO)cc2)O1,/,100,i,/,0.98,/,/
CN(Cc1ccccn1)Cc1nc(COc2ccccc2)no1,/,112,i,-7,1.1,/,/
Cc1cccc(NC(=O)c2cc(NC(=O)C3CCCCC3C(=O)O)ccc2Cl)n1 (stereo unspecified),-15,106,i,-7,1.1,0.9,156
CCc1ccccc1NC(=O)c1cc2ncc(Br)cn2n1,/,106,i,-8,0.93,-1.7,/
CCCn1cnc2c(=S)nc(N)[nH]c21,/,101,i,/,1.2,/,/
O=C(C1CCCCC1)N(Cc1ccccc1)c1ccccn1,-238,100,/,-5,/,-3.2,95
CCn1cc(C(=O)NCCCN2CCCCCC2)c(=O)c2cc(S(=O)(=O)N3CCc4ccccc4C3)ccc21,-64,113,/,-6,/,/,80
CCOC(=O)C(C(C)=O)C(c1ccc(OC)cc1)C(C(C)=O)C(=O)OCC (stereo unspecified),1,103,i,-4,0.89,-0.2,40
COc1ccccc1NNC(=O)C(O)(c1ccccc1OC)c1ccccc1OC,-23,101,i,8,1,-0.4,91
CCN1C(=O)CC(C(=O)OC)=C1C,-6,100,i,3,0.84,/,107
O=C(NCC1CCCO1)c1ccc(COc2ccc(Cl)cc2)cc1 (stereo unspecified),14,100,i,-3,0.98,/,70
CN(C)C(CNC(=S)Nc1cccc(Cl)c1)c1cccnc1 (stereo unspecified),0,106,i,-4,0.82,/,150
COc1ccc(NC(=O)Cc2ccc(Cl)c(Cl)c2)cn1,17,102,i,1,0.8,/,94
CC1CCCC(NC(=O)COC(=O)c2cccc(NS(=O)(=O)/C=C/c3ccccc3)c2)C1C (stereo unspecified),30,93,i,-14,0.95,-0.9,99
Cc1ccccc1Nc1nc(N)nc(CSc2nnc(C)n2C)n1,/,104,i,2,0.91,/,/
O=C(Nc1cccnc1)C1CCN(S(=O)(=O)c2cccs2)CC1,/,101,i,3,0.73,/,/
COc1ccc(C(=O)/C=C/C(=O)N(Cc2ccccc2OC)C(C(=O)NC2CCCCC2)c2ccncc2)c(O)c1 (stereo unspecified),-44,105,i,-14,0.81,-0.2,76
Nc1nonc1C(=O)NCCNC(=O)c1cccs1,-6,100,i,-4,0.9,-0.9,27

Source: PubChem BioAssay (several laboratories)
